# MgrA DNA FP: S. aureus MgrA-DNA binding modulation; fluorescence polarization; inhibition, %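 (about 10 µg/mL by stock and volumes)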; 0.13% of 84,000 active; AID 602314;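 active = above 50% in either of two replicates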;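 note: 0% = protein plus DNA without compound and 100% = DNA alone without protein; higher means less MgrA bound to DNA so lower polarization; one replicate is shown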
# S aureus helic: blocks Staphylococcus aureus DNA helicase | purified S. aureus helicase, fluorescence unwinding assay; about half of the hits fall short of the stated cut | inhibition, %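 (tested at about 80 µM)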 | 0.05% of 120,000 active;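 active = both duplicates at 50% or more, or one of them with a favoured structure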;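 note: 0% = mean of negative control wells and 100% = mean of positive control wells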
# An asterisk follows results filed as active; · = no result given; & = joins results of further samples. Only part of the results is shown (hit frequency here may not be typical).
# Values in the order – MgrA DNA FP	S aureus helic
COC(=O)c1ccccc1S(=O)(=O)NC(=O)Nc1nc(C)c2c(n1)CCSC2
 : ·	-15
CCOc1ccc(-c2cc(CCCC(=O)NCc3ccccc3)no2)cc1
 : ·	9
CS(=O)(=O)c1ccc(Cl)c(NC(=O)C2CC(=O)N(Cc3ccccc3)C2)c1 (centres undefined)
 : ·	0
CC(=O)NS(=O)(=O)c1ccc(NC(=O)CN2C(=O)C3CC=CCC3C2=O)cc1 (centres undefined)
 : ·	-11
O=C1CCC(=O)N1Cc1c(Cl)cccc1Cl
 : -1.7	14
N#CCOC(=O)C1COc2ccccc2O1 (centres undefined)
 : ·	-17
CCOc1ccc(-c2nc3c(c(SCC(=O)OC)n2)Cc2cccc(OCC)c2O3)cc1
 : 7.4	-4
CSCn1c(C)nc2ccccc21
 : ·	18
c1ccc(CNCc2ccco2)cc1
 : ·	13
CCOC(=O)COc1ccc2c(=O)c(-c3ccccc3OC)c(C(F)(F)F)oc2c1
 : 0.4	·
c1ccc(C2Oc3ccccc3C3CC(c4cccnc4)=NN32)cc1 (centres undefined)
 : ·	-29
Cc1ccc(CN2C(=O)c3ccccc3NC2c2ccccn2)cc1 (centres undefined)
 : ·	-2
CCCCSc1nnc2c(n1)OC(c1cc3c(cc1Cl)OCO3)Nc1ccccc1-2 (centres undefined)
 : 13	·
O=C(CC(=O)Nc1ccc(F)cc1F)Nc1ccc(F)cc1F
 : 1.2	·
Clc1ccc(C2N=C(c3cnccn3)NN2)cc1 (centres undefined)
 : ·	-25
O=C(Nc1ccc(N2CCOCC2)cc1)[C@H](Cc1ccccc1)NS(=O)(=O)c1ccc2c(c1)OCCO2
 : ·	-3
N=c1oc2ccccc2cc1C(N)=O
 : ·	17
Cc1cccc2sc(NS(=O)(=O)c3ccc(C(=O)O)cc3)nc12
 : ·	-3
Cc1ccc(CC(=O)N2CCN(C(=O)C3CCCO3)CC2)cc1 (centres undefined)
 : -0.2	10
CC1CC(C)(C)OC(C(C)(C)CN(C)C)O1 (centres undefined)
 : -5.3	2
Cc1ccc(Cn2cccc(C(=O)N(C)c3ccccc3)c2=O)cc1
 : ·	12
COc1cc(C(=O)Nc2nnc(CC(=O)N3CCOCC3)s2)cc(OC)c1OC
 : -0.9	7
O=C(O)CSc1sc(=S)sc1SCC(=O)O
 : ·	28
O=C(Nc1ccc(N2CCOCC2)cc1)C1c2ccccc2Oc2ccccc21
 : ·	-12
O=C(C1CCC(CNS(=O)(=O)c2cccc3cccnc23)CC1)N1CCc2ccccc21 (centres undefined)
 : 5.9	13
O=C(Cc1ccc(Cl)cc1)NCCS(=O)(=O)N1CCN(c2ccccc2)CC1
 : ·	6
OCc1cc(Cl)ncc1Cl
 : 0.2	·
Cc1ccc(C)c(S(=O)(=O)N2CCN(C(=O)CCC(=O)Nc3ccc(OC(F)(F)F)cc3)CC2)c1
 : ·	12
COc1ccc(S(=O)(=O)N2CCCCCC2)cc1C(=O)OCC(=O)N1CC(C)OC(C)C1 (centres undefined)
 : ·	7
CSC(=NC(C)(C)C)Nc1ccccc1Cl
 : -1.1	·
COC(=O)c1ccc(S(=O)(=O)N(C)C)n1C
 : -0.1	·
Cc1sc2nc(SCC(=O)N3CCN(CCO)CC3)[nH]c(=O)c2c1C
 : -1.4	·
COC(=O)C1C(=O)C2=C(CC1C)Nc1ccccc1NC2c1ccccc1C (centres undefined)
 : 4.7	12
O=C(c1ccc2c(c1)OCO2)N1CCCC1
 : -4.4	8
Cc1ccc(-c2nonc2NC(=O)c2ccccc2)cc1
 : ·	-35
Cc1cccc(CN(C(=O)Nc2ccc(Cl)c(Cl)c2)c2ccccn2)c1
 : -1.2	4
O=C(O)CCn1cccc1
 : -2.7	3
N#Cc1c(SC2CCCC2)nsc1SC1CCCC1
 : -0.9	6
COC(=O)c1cc(Cl)sc1NC(C)=O
 : -0.3	·
COc1ccc2nc3c(cc2c1)c(=O)n(C)c(=O)n3C
 : 0.7	·
Cc1nc2c(C(=O)NCc3ccc4c(c3)OCO4)cnn2c(C)c1Cc1c(F)cccc1Cl
 : -2.1	11
CCc1cc(SCC(=O)C(C#N)c2nc(C)cs2)n2c(nc3ccccc32)c1C#N (centres undefined)
 : ·	-8
COc1cccc(C(=O)Nc2ncc3c(n2)CC(C)(C)CC3=O)c1
 : -0.8	10
NC(=O)CCn1c2ccccc2c2ccccc21
 : -2.4	18
CCc1c(C)sc(NC(=O)CC#N)c1C#N
 : 18	-3
CN1CN=C2SC3(COC(c4ccc(N(C)C)cc4)OC3)C(=O)N2C1 (centres undefined)
 : 1.7	4
COC(=O)c1ccc(-c2nnc(-c3ccc(N(C)C)cc3)o2)cc1
 : ·	-6
CC(C)(C)c1cc(-c2cc(C(F)(F)F)[nH]n2)c2c(c1)C(C)(C)CC2
 : -2.7	·
CCCCn1c(SC(F)F)nc2ccccc2c1=O
 : ·	4
CCc1cc(C(=O)N(CC)Cc2ccncc2)cs1
 : 0.3	-7
CC(=O)Oc1ccc(Cl)cc1C(=O)O
 : 0.1	·
Cc1[nH]c2ccccc2c1-c1csc(N)n1
 : ·	-23
O/N=C/c1c(-c2ccccc2)nc2n1CCS2
 : 2.5	·
CCOC(=O)c1c(-c2ccc(Cl)cc2)nn2c1NCN(C1CCCCC1)C2
 : ·	16
COCCN1C(=S)NC2c3ccccc3OC13CCCC23 (centres undefined)
 : 0.8	11
N#Cc1cc2c(nc1SCC(N)=O)CCCC2
 : -0.5	9
O=C1CSC(CC(=O)Nc2ccc(Cl)cc2)=N1
 : 0.5	·
CCOC(=O)c1c(N)sc2c1C(C(=O)OCC)CCC2 (centres undefined)
 : 4.7	·
CC(C)C(=O)N(Cc1ccccc1)Cc1nc2ccccc2c(=O)[nH]1
 : -1.1	6
CCCc1ccc(OCc2ccc(C(=O)n3cc(Cl)cn3)o2)cc1
 : ·	48

# As entered above:
# Value for Cc1ccc(Cn2cccc(C(=O)N(C)c3ccccc3)c2=O)cc1 in S aureus helic: 12
# Value for O=C(O)CCn1cccc1 in S aureus helic: 3
# Value for O=C(CC(=O)Nc1ccc(F)cc1F)Nc1ccc(F)cc1F in MgrA DNA FP: 1.2
# Value for O/N=C/c1c(-c2ccccc2)nc2n1CCS2 in MgrA DNA FP: 2.5

# Additional results:
# Values in the order – MgrA DNA FP	S aureus helic
Cc1cc(F)ccc1S(=O)(=O)N(C(=O)c1ccncc1)c1ccc2oc(=O)sc2c1
 : ·	22
OC(COCc1ccco1)CN1CCc2ccccc2C1 (centres undefined)
 : 0.8	14
Cc1onc(-c2ccccc2)c1C(=O)Nc1ccccc1Oc1ccc(Cl)cc1Cl
 : -2.8	·
Cc1cc(Sc2nnc(C)s2)c2ccccc2n1
 : -3.7	-13
Fc1ccc2c(c1)-c1nc(C3CC3)ncc1CO2
 : -2.2	·
N#C/C(=C\c1ccc(-c2ccccc2)o1)C(=O)Nc1ccccc1
 : 0.3	6
CCc1ccc(C2C(C(=O)OC)=C(C)NC(C)=C2C(=O)OC)cc1
 : ·	26
Cc1ccc(S(=O)(=O)Nc2ccc([N+](=O)[O-])cc2NS(=O)(=O)c2ccc(C)cc2)cc1
 : 2.8	·
CCOc1ncccc1C(=O)OCc1ccc(O)c2ncccc12
 : ·	13
COC(=O)c1ccccc1NC(=O)c1ccc2nc(N3CCCCC3)sc2c1
 : 2.5	-19
Cc1cc(C)c2c(=O)[nH]c(SCC(=O)O)nc2n1
 : ·	-3
CCc1nnc(N2C(=O)c3ccccc3C2(O)c2ccccc2)s1 (centres undefined)
 : 0.0	10
N#CCC(=O)Nc1nc2ccccc2nc1Cl
 : 1.5	-1
O=C(Cc1ccccc1)Nc1ccc(-c2nc3cccnc3s2)cc1
 : 1.9	7
COc1ccc(C(=O)Nc2ccc(Oc3ccccc3)cc2)cc1I
 : -1.1	12
COc1ccc(OC)c(C2=NOC(C(=O)NC3CCCC3)C2)c1 (centres undefined)
 : ·	-4
COc1ccc2nc(C)cc(SCC(=O)O)c2c1
 : -1.4	8
O=C(c1cncn1-c1ccccc1)N1CCCC(c2nc3ccccc3s2)C1 (centres undefined)
 : ·	1
O=S(=O)(c1cccc(C(F)(F)F)c1)N1CCCC1c1cccnc1 (centres undefined)
 : 1.5	·
COC(=O)CCCCC1SCC2NC(=O)NC21 (centres undefined)
 : 1.6	-3
CC(C)(C)C(=O)COC(=O)Cc1ccc(-c2ccccc2)cc1
 : 0.6	3
Cc1cnn(C(=S)NCCc2ccccc2)c1
 : -6.1	6
CSc1nc(C)cc(C)c1C(N)=O
 : -0.1	-4
O=C1CC(c2ccccc2)Cc2[nH]ncc21 (centres undefined)
 : -2.4	11
CC(C)(C)c1cnnn1-c1ccc(NC(=O)c2ccc3c(c2)OCO3)cc1
 : ·	18
COc1cccc(N/C=C(\C#N)C(=O)N2CCOCC2)c1
 : ·	22
Cc1c(C(=O)O)sc(=S)n1-c1ccccc1
 : ·	15
Cc1ccc(S(=O)(=O)CCN(Cc2cccnc2)C(=O)c2ccccc2)cc1
 : -2.6	·
CCOc1cc2c(cc1OCC)C1C(C(=O)NCCOC)c3ccccc3C(=O)N1CC2 (centres undefined)
 : ·	40
N#Cc1ccccc1COC(=O)c1ccc2c(=O)n3c(nc2c1)CCCCC3
 : ·	-3

# Two of these compounds in a different format:
compound | MgrA DNA FP | S aureus helic
Cc1cc(Sc2nnc(C)s2)c2ccccc2n1 | -3.7 | -13
Fc1ccc2c(c1)-c1nc(C3CC3)ncc1CO2 | -2.2 | ·

# Other records.
# Values in the order – MgrA DNA FP	S aureus helic
O=C(NC1CCCC1)c1nnc(Cc2ccc(F)cc2)o1
 : ·	4
CNc1snc(C)c1C#N
 : ·	6
O=c1[nH]cc(N=Cc2cccnc2)c(=O)[nH]1
 : -0.9	32&-1
Cc1cc2nc(N(C)Cc3cccnc3)c3ccccc3n2n1
 : ·	13
OC(CN1CCOCC1)c1ccccc1 (centres undefined)
 : 0.8	·
COC(=O)CCS(=O)(=O)c1ccc(Cl)cc1
 : -2.9	10
CC(C)(C)c1ccc(OCCCC(=O)OCc2ccco2)cc1
 : ·	-6
O=C(O)CCNC(=O)Nc1cccc2ccccc12
 : ·	1
COc1ccc2cc3c(N)nn(C(=O)Cc4c[nH]c5ccccc45)c3nc2c1
 : ·	3
CC(C)C1NC(=O)NC1=O (centres undefined)
 : ·	-11
CC(C)C(C(=O)N1CCN(c2ccc(C(F)(F)F)cn2)CC1)c1ccc(Cl)cc1 (centres undefined)
 : ·	-3
CCCCCCC[N+](CC)(CC)CCCCc1ccc(Cl)cc1
 : -1.1	·
Clc1ccc(Cn2ncc3c(NC4CCCCC4)ncnc32)cc1
 : ·	-65
COC(=O)/C(C#N)=C/c1cc(C(=O)OC)n(-c2ccc(Cl)cc2)c1
 : ·	-18
Cc1cc2c(cc1[N+](=O)[O-])OCCO2
 : -2.8	·
O=C1/C(=C\c2ccco2)N=C(SCc2nnc(-c3ccccc3)o2)N1c1ccc(OC(F)F)cc1
 : ·	-16
Cc1nc2ccccn2c1-c1ccnc(=S)[nH]1
 : 14	·
COc1ccc(-c2ccnc(-c3cccs3)n2)cc1
 : -2.7	·
COC(=O)c1c[nH]n2c(=O)cc(C)nc12
 : 1.1	9
Cc1ccc(C)c(N2CCN(C(=O)CCCn3c(=O)c4cccn4c4cccnc43)CC2)c1
 : ·	0
O=C(Nc1ccccc1)NC1(C(=O)NCc2ccc3c(c2)OCO3)CCCCC1
 : -0.5	9
COc1ccc(-c2cc(C(F)(F)F)nc(SCC(=O)N(C)C3CCCCC3)n2)cc1
 : -8.1	6
CC(Sc1nnc(-c2ccccc2Br)o1)C(=O)Nc1cccc(Cl)c1 (centres undefined)
 : 0.3	4
O=C(c1cc(C(F)(F)F)cc(C(F)(F)F)c1)c1cc(C(F)(F)F)cc(C(F)(F)F)c1
 : -1.3	·
COc1ccc(-n2c(=O)cc(N3CCCC3)[nH]c2=O)cc1
 : ·	0
Cc1ccc(S(=O)(=O)NCc2ccc(/C=C(/C#N)C(=O)NC3CCCCC3)o2)cc1
 : -0.8	7
CCN(CC(=O)NC1CCS(=O)(=O)C1)C(=O)c1ccccc1Sc1ccccc1C#N (centres undefined)
 : ·	7
COC(=O)c1ccc2c(=O)[nH]c(COC(=O)Cc3n[nH]c(=O)c4ccccc34)nc2c1
 : ·	-1
CC(O)Cc1n[nH]c(=S)n1-c1ccccc1 (centres undefined)
 : 1.9	-1
CCCCc1c(C)nc2c(OC)cccc2c1SCCC(=O)O
 : -0.2	-8

# Compound profiles, as listed above. Order of values: MgrA DNA FP, S aureus helic
# Entry for CSc1nc(C)cc(C)c1C(N)=O → -0.1, -4
# Entry for Cc1cnn(C(=S)NCCc2ccccc2)c1 → -6.1, 6
# Entry for CNc1snc(C)c1C#N → ·, 6
# Entry for CSC(=NC(C)(C)C)Nc1ccccc1Cl → -1.1, ·
# Entry for COC(=O)c1ccccc1NC(=O)c1ccc2nc(N3CCCCC3)sc2c1 → 2.5, -19

# Other compounds:
# Values in the order – MgrA DNA FP	S aureus helic
CNc1nc2c(-c3ccc(Cl)cc3)nnn2c2ccccc12
 : 0.1	7
CC(C)C(=O)/C=C1/Sc2ccccc2N1C
 : 3.0	6
CSc1n[nH]c(-c2ccco2)n1
 : -2.0	·
CCCNC(=O)c1ccc2c(c1)ncn2-c1cccc(C)c1
 : ·	0
Cc1nc2cc(C(=O)O)ccc2n1C1CCCCC1
 : 0.5	-4
Clc1ccc(Oc2ccc(N=Cc3ccc(I)o3)cc2)cc1
 : -0.8	8
CN(Cc1ccccc1)C(=O)c1ccc2c(c1)N(Cc1ccccc1)C(=O)c1ccccc1S2(=O)=O
 : ·	-4
COc1ccc(Nc2c(-c3ccc(N4CCOCC4)cc3)nc3cnccn23)cc1
 : ·	-21
COC(=O)c1csc2c(C(F)(F)F)cc(N3CCN(C(=O)c4cccs4)CC3)nc12
 : -0.6	·
CC(=O)OC(CN1CCCC1)C(C)(C)C (centres undefined)
 : ·	-15
CCOC(=O)c1c(C)[nH]c(/C(C)=N\O)c1C
 : -0.7	-1
CCOC(=O)c1nnc2cc(-c3cccs3)sc2n1
 : 1.4	·
CCCCOc1ncnc2c1ncn2CCCl
 : -3.4	·
O=c1[nH]cnc2c1ncn2COCCO
 : ·	6

# Source: PubChem (ICCB-Longwood Screening Facility, Harvard Medical School)
